PV pol inh: inhibitors of poliovirus RNA polymerase binding and polymerization; P03300; poliovirus polymerase elongation, fluorescence polarization; hits give low values; % elongation, % (compound at 16.7 µg/mL); actives 0.66% (n = 150,000); AID 588519; in the data active = % elongation below about 90%; also: some results filed as inactive read as strong as hits
Target sequence (P03300 1749-2209 limits assumed): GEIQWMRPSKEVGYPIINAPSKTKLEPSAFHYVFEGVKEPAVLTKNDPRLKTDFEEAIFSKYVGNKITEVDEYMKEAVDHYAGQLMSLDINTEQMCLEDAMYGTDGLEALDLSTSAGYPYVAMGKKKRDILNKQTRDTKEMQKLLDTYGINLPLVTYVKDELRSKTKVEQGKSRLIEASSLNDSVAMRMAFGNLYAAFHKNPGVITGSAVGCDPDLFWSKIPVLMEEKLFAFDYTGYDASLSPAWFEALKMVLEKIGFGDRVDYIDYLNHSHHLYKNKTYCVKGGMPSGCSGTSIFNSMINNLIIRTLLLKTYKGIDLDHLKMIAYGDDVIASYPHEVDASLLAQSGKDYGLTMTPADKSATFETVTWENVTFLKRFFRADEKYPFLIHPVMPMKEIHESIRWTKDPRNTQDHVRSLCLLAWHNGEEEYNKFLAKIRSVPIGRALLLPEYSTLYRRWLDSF
MenB inh: Mtb MenB enzyme inhibition. P9WNP5. MenB enzyme assay, absorbance read-out; some hits fall short of the stated cut. inhibition, %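 (about 12 µg/mL by stock and volumes)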. actives 0.43% (n = 100,000);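 active = mean of two replicates above 30%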;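 also: 0% = no compound and 100% = wells with inactive enzyme; the first replicate is given; strong numbers were not always called active; inactives centre near -10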
Mtb MbtI inh: inhibitors of Mycobacterium tuberculosis siderophore enzyme MbtI | purified MbtI enzyme, fluorescence intensity read-out | inhibition, %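 (about 17 µg/mL by stock and volumes)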 | actives 0.89% (n = 100,000);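 active = above 50% in both replicates, above 80% if mildly self-fluorescent; inactive = the rest, strongly fluorescent compounds included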;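 also: 0% = mean of negative and 100% = mean of positive controls; one replicate is shown; some compounds called inactive have numbers as strong as hits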
Target sequence (P9WFX0 whole entry, looked up): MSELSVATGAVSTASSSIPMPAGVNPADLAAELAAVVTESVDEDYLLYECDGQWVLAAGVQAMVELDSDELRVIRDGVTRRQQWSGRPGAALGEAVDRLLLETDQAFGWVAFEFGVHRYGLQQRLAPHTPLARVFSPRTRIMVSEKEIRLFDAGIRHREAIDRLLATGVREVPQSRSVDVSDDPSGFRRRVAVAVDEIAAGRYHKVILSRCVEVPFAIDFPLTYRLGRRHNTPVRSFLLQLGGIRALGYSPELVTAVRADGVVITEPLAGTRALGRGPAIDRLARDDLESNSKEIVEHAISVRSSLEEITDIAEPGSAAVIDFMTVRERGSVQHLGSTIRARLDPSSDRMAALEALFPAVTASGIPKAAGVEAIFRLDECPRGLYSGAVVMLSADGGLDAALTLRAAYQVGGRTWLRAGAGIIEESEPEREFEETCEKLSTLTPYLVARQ
PV pol inh intensity: further read-out of PV pol inh, marked with its call; % elongation; measured here: total intensity read-out; formula for this scale not given here;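 total fluorescence in place of polarization; lower means less elongation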
* marks the source's active call; other numbers are inactive results; & = joins results of further samples.

CC(=O)N=Nc1c(O)[nH]c2ccc(F)cc12 was read as PV pol inh 103, MenB inh -38, Mtb MbtI inh -3 and PV pol inh intensity 104.
Screening NNC(=O)Nc1ccccc1 returned PV pol inh 103, MenB inh -21, Mtb MbtI inh 10 and PV pol inh intensity 97.
For Cc1c(C(=O)Nc2ccccc2Br)oc2ccccc12 the results were PV pol inh 101, MenB inh -12, Mtb MbtI inh 4 and PV pol inh intensity 101.
`COC(=O)c1ccc2ccn(CC(N)=O)c2c1` gave PV pol inh 100, MenB inh -2, Mtb MbtI inh 78 and PV pol inh intensity 102.
Screening CCCC(O)(CCC)C(=O)NN1CCCCC1 returned PV pol inh 102, MenB inh -27 and PV pol inh intensity 106.
Screening O=C(c1cnn(-c2ccccc2)c1-n1cccc1)N1CCC(C(=O)N2CCc3ccccc32)CC1 returned PV pol inh 101, MenB inh -11, Mtb MbtI inh -8 and PV pol inh intensity 103.
c1ccc(N=C2CCCC2)nc1 was read as PV pol inh 102, Mtb MbtI inh -5 and PV pol inh intensity 109.
CC(C(=O)Nc1ccc(Cl)cc1)N(C)Cc1cccs1 (stereo not given) was read as PV pol inh 97, MenB inh 0, Mtb MbtI inh -14 and PV pol inh intensity 105.
`CCCn1c(=O)c(C(=O)Nc2nccs2)c(O)c2ccccc21` gave PV pol inh 99, MenB inh 1, Mtb MbtI inh -6 and PV pol inh intensity 100.
For COC(=O)c1ccc(-n2c(C)cc(-c3csc(N)n3)c2C)cc1 the results were PV pol inh 102, MenB inh -20, Mtb MbtI inh -11 and PV pol inh intensity 104.
CN1C(=O)/C(=C\c2ccc3c(c2)OCO3)SC1=S was read as PV pol inh 103, MenB inh -17, Mtb MbtI inh -3 and PV pol inh intensity 103.
O=C(Nc1nccs1)C(F)(F)F was read as PV pol inh 104, MenB inh -31, Mtb MbtI inh 0 and PV pol inh intensity 97.
For COc1ccc(-n2nc(C(=O)NCc3ccc(C)cc3)c3c4ccccc4n(C)c3c2=O)cc1Cl the results were PV pol inh 103, MenB inh -12, Mtb MbtI inh 15 and PV pol inh intensity 106.
For O=C(O)c1ccc(-c2nnco2)cc1 the results were PV pol inh 101, MenB inh 4, Mtb MbtI inh -11 and PV pol inh intensity 113.
Screening O=C(Nc1ccccc1)C1(S(=O)(=O)c2ccccc2)CC1 returned PV pol inh 103, MenB inh -44, Mtb MbtI inh -7 and PV pol inh intensity 101.

12 entries from above, arranged by formula weight, lowest first.
c1ccc(N=C2CCCC2)nc1 was read as PV pol inh 102, Mtb MbtI inh -5 and PV pol inh intensity 109.
For O=C(O)c1ccc(-c2nnco2)cc1 the results were PV pol inh 101, MenB inh 4, Mtb MbtI inh -11 and PV pol inh intensity 113.
O=C(Nc1nccs1)C(F)(F)F was read as PV pol inh 104, MenB inh -31, Mtb MbtI inh 0 and PV pol inh intensity 97.
CC(=O)N=Nc1c(O)[nH]c2ccc(F)cc12 was read as PV pol inh 103, MenB inh -38, Mtb MbtI inh -3 and PV pol inh intensity 104.
`COC(=O)c1ccc2ccn(CC(N)=O)c2c1` gave PV pol inh 100, MenB inh -2, Mtb MbtI inh 78 and PV pol inh intensity 102.
CN1C(=O)/C(=C\c2ccc3c(c2)OCO3)SC1=S was read as PV pol inh 103, MenB inh -17, Mtb MbtI inh -3 and PV pol inh intensity 103.
Screening O=C(Nc1ccccc1)C1(S(=O)(=O)c2ccccc2)CC1 returned PV pol inh 103, MenB inh -44, Mtb MbtI inh -7 and PV pol inh intensity 101.
For COC(=O)c1ccc(-n2c(C)cc(-c3csc(N)n3)c2C)cc1 the results were PV pol inh 102, MenB inh -20, Mtb MbtI inh -11 and PV pol inh intensity 104.
`CCCn1c(=O)c(C(=O)Nc2nccs2)c(O)c2ccccc21` gave PV pol inh 99, MenB inh 1, Mtb MbtI inh -6 and PV pol inh intensity 100.
For Cc1c(C(=O)Nc2ccccc2Br)oc2ccccc12 the results were PV pol inh 101, MenB inh -12, Mtb MbtI inh 4 and PV pol inh intensity 101.
Screening O=C(c1cnn(-c2ccccc2)c1-n1cccc1)N1CCC(C(=O)N2CCc3ccccc32)CC1 returned PV pol inh 101, MenB inh -11, Mtb MbtI inh -8 and PV pol inh intensity 103.
For COc1ccc(-n2nc(C(=O)NCc3ccc(C)cc3)c3c4ccccc4n(C)c3c2=O)cc1Cl the results were PV pol inh 103, MenB inh -12, Mtb MbtI inh 15 and PV pol inh intensity 106.

Other entries:
`CCOc1cc(C)ccc1OCC(=O)O` gave PV pol inh 98, MenB inh -12, Mtb MbtI inh -3 and PV pol inh intensity 98.
`N#CCN1CCn2c3c(c4cc(C5CCCCC5)ccc42)CCCC31` (stereo not given) gave PV pol inh 103, MenB inh -9, Mtb MbtI inh 8 and PV pol inh intensity 102.
COC(=O)c1cc(OC(=O)C23CC4CC(CC(C4)C2)C3)n(C)n1 was read as PV pol inh 104, MenB inh -19, Mtb MbtI inh -2 and PV pol inh intensity 105.
Screening O=C(c1cc(Nc2ccccc2)n[nH]1)N1CCCCC1 returned PV pol inh 102, MenB inh -17, Mtb MbtI inh 2 and PV pol inh intensity 102.
Screening O=C1O/C(=C/C(=O)N2CCOCC2)c2ccccc21 returned PV pol inh 103, MenB inh -6, Mtb MbtI inh -12 and PV pol inh intensity 101.
`COc1ccc(-c2noc(N3CCCC(C(=O)N(C)c4cccc(C(F)(F)F)c4)C3)n2)cc1` (stereo not given) gave PV pol inh 100, MenB inh -11, Mtb MbtI inh -21 and PV pol inh intensity 104.
For O=c1c2ccccc2c(/C=N/c2ncn[nH]2)c(O)n1Cc1ccccc1 the results were PV pol inh 102, MenB inh -68, Mtb MbtI inh -6 and PV pol inh intensity 106.
`COCC(=O)NCc1nn(-c2ccccc2)nc1C` gave PV pol inh 97, MenB inh 3, Mtb MbtI inh 28 and PV pol inh intensity 108.
Screening CSc1cccc(NS(=O)(=O)c2cc3[nH]c(=O)c(=O)[nH]c3cc2C)c1 returned PV pol inh 99, MenB inh -5, Mtb MbtI inh -20 and PV pol inh intensity 101.
For Cc1cc(OC(=O)c2cccs2)n(Cc2ccc(Cl)cc2Cl)n1 the results were PV pol inh 101, MenB inh -1, Mtb MbtI inh 2 and PV pol inh intensity 107.
For O=C(OCc1cc(=O)oc2cc(O)ccc12)C1CC2CCCC(C1)C2=O (stereo not given) the results were PV pol inh 109, MenB inh -14, Mtb MbtI inh -30 and PV pol inh intensity 107.
Cc1ccc(S(=O)(=O)NCCO)cc1-c1nnc2c3ccccc3c(C)nn12 was read as PV pol inh 102, MenB inh 6, Mtb MbtI inh 9 and PV pol inh intensity 102.
`Cc1csc(NC(=O)c2sc3cc(F)ccc3c2Cl)n1` gave PV pol inh 94, Mtb MbtI inh 14 and PV pol inh intensity 90.
`Cn1cnnc1SCC(=O)NC(=O)c1ccc(C(C)(C)C)cc1` gave PV pol inh 103, MenB inh -20, Mtb MbtI inh -8 and PV pol inh intensity 104.
For Nc1nc2cc3c(cc2s1)OCO3 the results were PV pol inh 102, MenB inh -29, Mtb MbtI inh 0 and PV pol inh intensity 108.
`O=S(=O)(c1ccc(N2CCOCC2)nc1)N1CCOCC1` gave PV pol inh 104, MenB inh -125, Mtb MbtI inh -34 and PV pol inh intensity 98.
Screening COC(=O)Cc1cc(=O)[nH]c(=S)[nH]1 returned PV pol inh 102, MenB inh -79, Mtb MbtI inh 10 and PV pol inh intensity 102.
`CCOc1nc2cccnc2n(C(C)C(=O)N(CC)c2cccc(C)c2)c1=O` (stereo not given) gave PV pol inh 99, MenB inh -9, Mtb MbtI inh 28 and PV pol inh intensity 104.
CCCc1cc(=O)[nH]c(SCC(=O)N(C)Cc2ccccc2)n1 was read as PV pol inh 103, MenB inh 6, Mtb MbtI inh 23 and PV pol inh intensity 105.
For CC(C)(C)N(Cc1ccccc1)C(=O)CSc1nc(N)cc(=O)[nH]1 the results were PV pol inh 106, MenB inh 14, Mtb MbtI inh -4 and PV pol inh intensity 107.
`O=C(CCCn1sc2ccccc2c1=O)NCc1cccnc1` gave PV pol inh 102, MenB inh 16, Mtb MbtI inh 12 and PV pol inh intensity 103.
COc1ccc(Cc2nnc(NC(=O)c3cccs3)s2)cc1OC was read as PV pol inh 106, MenB inh -44, Mtb MbtI inh -2 and PV pol inh intensity 99.
CCCNCC(=O)Nc1ccccc1C was read as PV pol inh 101, MenB inh -23, Mtb MbtI inh -8 and PV pol inh intensity 95.
`O=C1NC(=O)N(C2CCCCC2)C(=O)/C1=C/c1ccc(C(=O)O)cc1` gave PV pol inh 103, MenB inh -23 and PV pol inh intensity 105.
`CCN(CC)C(=O)Cn1cc(SCC(=O)NC)c2ccccc21` gave PV pol inh 101, MenB inh -8, Mtb MbtI inh -35 and PV pol inh intensity 101.
`Cc1c(C(=O)N2CCOCC2)[nH]c2ccc(OCc3ccccc3)cc12` gave PV pol inh 101, MenB inh -7 and PV pol inh intensity 105.
Cc1cc(F)c(F)cc1C(=O)N1CCN(C)CC1 was read as PV pol inh 102, MenB inh 7, Mtb MbtI inh -12 and PV pol inh intensity 101.
`CCOC(=O)c1ccc(NC(=O)NC2CC3CCC(C2)N3Cc2nnnn2Cc2ccco2)cc1` (stereo not given) gave PV pol inh 101, MenB inh 5, Mtb MbtI inh -1 and PV pol inh intensity 102.
CCOC(=O)C1CCN(C(=O)c2cc3ccccc3oc2=O)CC1 was read as PV pol inh 100, MenB inh -14, Mtb MbtI inh 9 and PV pol inh intensity 101.
Screening O=C(O)Cc1c(F)cccc1Cl returned PV pol inh 102, MenB inh -7, Mtb MbtI inh -11 and PV pol inh intensity 107.
For CCOC(=O)c1sc2ncn(CC(=O)OC)c(=O)c2c1C the results were PV pol inh 106, MenB inh -19 and PV pol inh intensity 110.
Screening Cc1ccc(NC(=O)CNC(=O)Cn2cnc3ccccc3c2=O)cc1F returned PV pol inh 101, MenB inh -5, Mtb MbtI inh 7 and PV pol inh intensity 101.
`Cc1nn(CC(=O)N(C)Cc2ccccc2)c(=O)c2nn(-c3ccccc3)c(C)c12` gave PV pol inh 104, MenB inh -12, Mtb MbtI inh -24 and PV pol inh intensity 102.
Screening O=C(NCn1cnccc1=O)c1ccccc1 returned PV pol inh 104, MenB inh -11, Mtb MbtI inh 9 and PV pol inh intensity 105.
Screening O=C(OCc1csc(-c2ccccc2)n1)c1ccc(S(=O)(=O)N2CCOCC2)cc1 returned PV pol inh 103, MenB inh -21, Mtb MbtI inh -12 and PV pol inh intensity 113.
Screening O=C(CSC1c2ccccc2Oc2ccccc21)Nc1ccc(C(=O)O)cc1 returned PV pol inh 94, MenB inh -5, Mtb MbtI inh 15 and PV pol inh intensity 88.
`c1ccc(CN2CCN(c3ncnc4sc5c(c34)CCCCC5)CC2)cc1` gave PV pol inh 97, MenB inh -7 and PV pol inh intensity 90.
CC(O)CNC(=O)CC1(CC(=O)NCC(C)O)CCCC1 (stereo not given) was read as PV pol inh 99, Mtb MbtI inh -2 and PV pol inh intensity 100.
Screening CC1CCN(S(=O)(=O)c2ccc3nc(-c4cccnc4)cc(C(=O)NCC4CCCO4)c3c2)CC1 (stereo not given) returned PV pol inh 101, MenB inh 7, Mtb MbtI inh 2 and PV pol inh intensity 105.
For Cc1ccc(Cl)cc1N1CCN(C(=O)C2CCN(S(=O)(=O)c3cccs3)CC2)CC1 the results were PV pol inh 101, MenB inh 2, Mtb MbtI inh 14 and PV pol inh intensity 103.
For CCN=c1scc(CC(=O)OCC)n1-c1c(C)cc(C)cc1C the results were PV pol inh 103, MenB inh -17, Mtb MbtI inh -2 and PV pol inh intensity 101.
COc1ccc(NC(=O)Nc2cc(F)cc(F)c2)cc1OC1CCCC1 was read as PV pol inh 102, MenB inh -1, Mtb MbtI inh -3 and PV pol inh intensity 100.
Screening CNS(=O)(=O)c1cn(CC(=O)N2CCCC2)cc1S(=O)(=O)NC returned PV pol inh 102, MenB inh -17, Mtb MbtI inh -6 and PV pol inh intensity 103.
`CCC(C)c1ccc(C(=O)COc2ccc(-c3nnco3)cc2)cc1` (stereo not given) gave PV pol inh 104, MenB inh -58, Mtb MbtI inh -12 and PV pol inh intensity 114.
For CCOC(=O)C1=C(C)NC(C)=C(C(=O)OCC)C1C(=O)OCn1nnc2ccccc2c1=O the results were PV pol inh 97, MenB inh -28, Mtb MbtI inh 13 and PV pol inh intensity 92.
For CC1C(c2ccccc2)=[N+]([O-])C(C)(C)N1O (stereo not given) the results were PV pol inh 104, MenB inh -21, Mtb MbtI inh -5 and PV pol inh intensity 106.
For O=C(O)Cc1n[nH]c(=O)c2ccccc12 the results were PV pol inh 101, MenB inh 37*, Mtb MbtI inh -9&10 and PV pol inh intensity 102.
Screening COCCN(Cc1cccs1)Cc1cc(=O)oc2ccc(OC)cc12 returned PV pol inh 105, MenB inh -59, Mtb MbtI inh -6 and PV pol inh intensity 106.
`NNC(=O)CC1CCS(=O)(=O)C1` (stereo not given) gave PV pol inh 101, MenB inh -6, Mtb MbtI inh 9 and PV pol inh intensity 108.
COC(=O)c1c(C)[nH]c(C(=O)C(C)Sc2nnc(N)s2)c1C (stereo not given) was read as PV pol inh 103, MenB inh -19, Mtb MbtI inh 7 and PV pol inh intensity 100.
Cc1ccc(NC(=O)c2ccc(NC3=NC4CS(=O)(=O)CC4S3)cc2)cc1F (stereo not given) was read as PV pol inh 99, MenB inh -24, Mtb MbtI inh 24 and PV pol inh intensity 100.

Source: PubChem
